Screening data from PubChem BioAssay.
p53 mut binder = binders of human mutant p53; small molecule microarray binding, anti-GST fluorescence; calls only; 17,000 compounds, 0.4% hits;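 active = compounds whose four printed spots each glow above background more than chance allows, each with a p-value under 7%; compounds were printed on slides so no solution concentration is given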;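 also: about 2 pmol printed per array spot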
ID4 binder = binds human ID4 protein on microarray. AID 624137. calls only. small molecule microarray, Flag-ID4 binding, fluorescence F/B. 31,000 compounds, 1.2% hits;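 active = spot signal over background at p below 0.07 in all four prints; compounds were printed on slides so no solution concentration is given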;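 also: a binder raises fluorescence above local background on the spot; about 2 pmol printed per array spot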
Target sequence (P47928 whole entry, looked up): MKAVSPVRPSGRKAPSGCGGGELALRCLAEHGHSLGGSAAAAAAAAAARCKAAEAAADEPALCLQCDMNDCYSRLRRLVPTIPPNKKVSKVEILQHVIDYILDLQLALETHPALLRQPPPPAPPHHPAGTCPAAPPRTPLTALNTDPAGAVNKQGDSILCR
STAT3 SMM = binders of human STAT3; P40763; Small molecule microarray, His-STAT3 binding, anti-His fluorescence; calls only; 17,000 compounds, 0.2% hits;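 active = compounds whose four printed spots each show fluorescence over background unusually high for their array block, chance value under 7%; compounds were printed on slides so no solution concentration is given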;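 also: about 2 pmol printed per array spot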
Target sequence (P40763 whole entry, looked up): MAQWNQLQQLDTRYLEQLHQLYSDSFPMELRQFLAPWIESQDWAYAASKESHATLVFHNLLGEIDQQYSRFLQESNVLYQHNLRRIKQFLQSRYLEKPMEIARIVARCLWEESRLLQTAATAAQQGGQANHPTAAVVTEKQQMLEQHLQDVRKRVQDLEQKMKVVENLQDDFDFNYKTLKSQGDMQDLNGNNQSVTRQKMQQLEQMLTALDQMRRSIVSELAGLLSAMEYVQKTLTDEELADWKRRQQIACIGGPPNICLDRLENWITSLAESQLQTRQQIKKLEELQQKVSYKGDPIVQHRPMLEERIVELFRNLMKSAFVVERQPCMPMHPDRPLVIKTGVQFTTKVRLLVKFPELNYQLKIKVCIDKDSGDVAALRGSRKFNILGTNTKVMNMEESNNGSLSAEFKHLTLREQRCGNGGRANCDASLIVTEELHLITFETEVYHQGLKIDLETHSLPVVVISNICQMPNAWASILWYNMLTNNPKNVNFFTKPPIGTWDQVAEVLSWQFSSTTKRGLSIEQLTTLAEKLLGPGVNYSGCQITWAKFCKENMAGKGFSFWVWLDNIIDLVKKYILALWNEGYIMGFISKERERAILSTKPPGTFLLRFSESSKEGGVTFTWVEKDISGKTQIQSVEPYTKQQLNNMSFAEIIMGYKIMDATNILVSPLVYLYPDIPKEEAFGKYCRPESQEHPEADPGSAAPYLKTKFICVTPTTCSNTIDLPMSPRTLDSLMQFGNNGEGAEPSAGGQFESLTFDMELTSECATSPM
c-Myc SMM = binds human c-Myc on microarray. AID 624141. 17,000 compounds, 1.5% hits. small molecule microarray, His-c-Myc binding, anti-His fluorescence. calls only;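 active = spot fluorescence over background with P-value below 7% in all four replicate spots, showing protein binding; compounds were printed on slides so no solution concentration is given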;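 also: score is binary with 100 for all four spots passing and 0 otherwise; about 2 pmol printed per array spot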
Calls only; i = inactive; nt = no result given; + = active, no number.

Preview (four entries):
SMILES	p53 mut binder	ID4 binder	STAT3 SMM	c-Myc SMM
C[C@H]1CN([C@@H](C)CO)C(=O)c2cc(NC(=O)CCCN(C)C)ccc2O[C@@H]1CN(C)C(=O)Nc1ccccc1	i	i	i	i
C[C@H]1CN([C@@H](C)CO)C(=O)c2cc(NC(=O)CCCN(C)C)ccc2O[C@H]1CN(C)Cc1ccc(C(=O)O)cc1	i	i	i	i
C[C@@H]1CN([C@H](C)CO)C(=O)c2cc(NC(=O)c3ccncc3)ccc2O[C@@H]1CN(C)C(=O)Nc1ccc2c(c1)OCO2	i	i	i	i
CCc1ccccc1N(CC(=O)NC)S(C)(=O)=O	i	i	i	i

The list itself, repeating the preview:
SMILES	p53 mut binder	ID4 binder	STAT3 SMM	c-Myc SMM
C[C@H]1CN([C@@H](C)CO)C(=O)c2cc(NC(=O)CCCN(C)C)ccc2O[C@@H]1CN(C)C(=O)Nc1ccccc1	i	i	i	i
C[C@H]1CN([C@@H](C)CO)C(=O)c2cc(NC(=O)CCCN(C)C)ccc2O[C@H]1CN(C)Cc1ccc(C(=O)O)cc1	i	i	i	i
C[C@@H]1CN([C@H](C)CO)C(=O)c2cc(NC(=O)c3ccncc3)ccc2O[C@@H]1CN(C)C(=O)Nc1ccc2c(c1)OCO2	i	i	i	i
CCc1ccccc1N(CC(=O)NC)S(C)(=O)=O	i	i	i	i
COc1ccc(CN(C)C[C@@H]2Oc3ccc(NC(=O)NC4CCCCC4)cc3C(=O)N([C@@H](C)CO)C[C@H]2C)cc1	i	i	i	i
C=C1C(=O)O[C@@H]2/C=C(/CO[C@@H]3O[C@H](CO)[C@@H](O)[C@H](O)[C@H]3O)CC/C=C(/C=O)C[C@H](O)[C@@H]12	i	nt	i	i
Cc1noc(C)c1S(=O)(=O)Nc1cccc2c1O[C@@H](CN(C)Cc1ccc(C(F)(F)F)cc1)[C@@H](C)CN([C@@H](C)CO)C2=O	i	i	i	i
CC1(CC(=O)O)CCC2(O1)C(CO)=CCC1C(C)(C)C(O)CCC12C (stereo not drawn)	i	i	i	i
O=C1O[C@@H](c2ccccc2)[C@@H](c2ccccc2)N2[C@@H](c3ccc(OCCO)cc3)[C@]3(C(=O)Nc4ccccc43)[C@@H](C(=O)N3CCCCCCC3)[C@H]12	+	+	i	+
COc1ccc(C#Cc2ccc3c(c2)[C@]2(C(=O)N3)[C@H](C(N)=O)[C@H]3C(=O)O[C@H](c4ccccc4)[C@H](c4ccccc4)N3[C@@H]2c2ccc(OCCO)cc2)cc1	i	i	i	i
Cc1noc(C)c1NC(=O)N(C)C[C@H]1Oc2ccc(NC(=O)C3CC3)cc2C(=O)N([C@@H](C)CO)C[C@@H]1C	i	i	i	i
C[C@H]1CN([C@@H](C)CO)C(=O)Cc2cc(NC(=O)Nc3cccc4ccccc34)ccc2O[C@H]1CN(C)C(=O)NC1CCCCC1	i	i	i	i
CN(C)C(=O)[C@]1(Cc2ccccc2N=[N+]=[N-])N=C(c2ccc(OCCCO)cc2)O[C@@H]1c1ccccc1	i	i	i	i
C[C@H]1CN([C@@H](C)CO)C(=O)Cc2cc(NC(=O)Cc3cn(C)c4ccccc34)ccc2O[C@H]1CN(C)S(=O)(=O)c1cn(C)cn1	i	i	i	i
C[C@@H]1CN([C@H](C)CO)C(=O)Cc2cc(NC(=O)Nc3cccc4ccccc34)ccc2O[C@@H]1CN(C)C(=O)NC1CCCCC1	i	i	i	i
Cc1cc(C(=O)NCc2ccco2)no1	i	i	i	i
CC(C)NC(=O)N(C)C[C@@H]1Oc2ccc(NC(=O)C3CC3)cc2CC(=O)N([C@H](C)CO)C[C@@H]1C	i	i	i	i
C[C@H](CO)N1C[C@H](C)[C@H](CN(C)S(=O)(=O)c2cccs2)OCCCC[C@H](C)Oc2ccc(NC(=O)Cc3ccccc3)cc2C1=O	i	i	i	i
Cc1noc(C)c1NC(=O)Nc1cccc2c1O[C@H](CN(C)C(=O)NC1CCCCC1)[C@H](C)CN([C@@H](C)CO)C2=O	i	i	i	i
CC(C)NC(=O)Nc1ccc2c(c1)C(=O)N([C@@H](C)CO)C[C@H](C)[C@@H](CN(C)S(=O)(=O)c1cccs1)OCCCC[C@@H](C)O2	i	i	i	i
Cc1ccc(-c2nc(SCC(=O)Nc3cccc(Br)c3)n[nH]2)cc1	i	i	i	i
C=CC1c2cc(O)c(OC)cc2CCN1Cc1sc2ccccc2c1Cl (stereo not drawn)	i	i	i	i
NC(=O)COc1ccc(Br)cc1C1C2=C(CCCC2=O)NC2=C1C(=O)CCC2	i	i	i	i
C/C=C(/C)C(=O)O[C@@H]1c2cc(OC)c(OC)cc2-c2c(ccc(OC)c2OC)C[C@H]2C(=O)OC[C@H]12	i	i	i	i
OC1(c2ccc3c(c2)OCO3)OCC2C(c3ccc4c(c3)OCO4)OCC21O (stereo not drawn)	i	i	i	i
C[C@@H]1CN([C@@H](C)CO)C(=O)CCCn2nncc2CO[C@H]1CN(C)C(=O)c1ccncc1	i	nt	i	i
C[C@H](CO)N1C[C@H](C)[C@H](CN(C)C(=O)Nc2ccc3c(c2)OCO3)Oc2ccc(NC(=O)Cc3ccccc3)cc2CC1=O	i	i	i	i
CCCNC(=O)c1ccccc1NC(=O)C1COc2ccccc2O1 (stereo not drawn)	i	i	i	i
CCO[C@H]1OC(C(=O)N2CCOCC2)=C[C@@H](c2cn(C(C)=O)c3ccccc23)[C@@H]1CCCO	i	i	i	i
Cc1noc(C)c1NC(=O)N(C)C[C@H]1Oc2ccc(NC(=O)Cn3cnnn3)cc2C(=O)N([C@@H](C)CO)C[C@H]1C	i	i	i	i
C[C@H](CO)N1C[C@H](C)[C@@H](CN(C)Cc2ccc(Cl)c(Cl)c2)Oc2c(NS(C)(=O)=O)cccc2C1=O	i	i	i	i
COc1ccc([Si](C)(C)[C@H]2[C@H](CCn3cc([C@H](O)c4ccccc4)nn3)O[C@@]3(C(=O)N(Cc4ccc(N5CCC5=O)cc4)c4ccccc43)[C@@H]2C)cc1	i	i	i	i
C[C@H](CO)N1C[C@H](C)[C@@H](CN(C)C(=O)NC2CCCCC2)Oc2ccc(NS(=O)(=O)c3cn(C)cn3)cc2C1=O	i	i	i	i
COc1ccc(S(=O)(=O)N(C)C[C@@H]2Oc3ncc(-c4cc5ccccc5o4)cc3C(=O)N([C@H](C)CO)C[C@@H]2C)cc1	i	i	i	i
C[C@H](CO)N1C[C@H](C)[C@@H](CN(C)C(=O)NC2CCCCC2)Oc2ccc(NS(=O)(=O)c3cccs3)cc2C1=O	i	i	i	i
C[C@H]1CN([C@@H](C)CO)C(=O)c2cccc(NS(=O)(=O)c3ccc(Cl)cc3)c2O[C@H]1CN(C)Cc1ccccc1	i	nt	i	i
C[C@@H]1CN([C@@H](C)CO)C(=O)c2cc(NC(=O)Nc3ccc(F)cc3)ccc2O[C@@H]1CN(C)C(=O)Nc1ccc(F)cc1	i	i	i	i
Cc1noc(C)c1NC(=O)N(C)C[C@@H]1Oc2ccc(NC(=O)Nc3ccc(C(F)(F)F)cc3)cc2C(=O)N([C@@H](C)CO)C[C@H]1C	i	nt	i	i
COc1ccc(S(=O)(=O)Nc2ccc3c(c2)C(=O)N([C@H](C)CO)C[C@@H](C)[C@H](CN(C)Cc2ccncc2)O3)cc1	i	i	i	i
COc1ccc(CN(C)C[C@@H]2Oc3c(NC(=O)C4CCOCC4)cccc3C(=O)N([C@@H](C)CO)C[C@H]2C)cc1	i	i	i	i
COc1ccc(S(=O)(=O)Nc2ccc3c(c2)C(=O)N([C@H](C)CO)C[C@@H](C)[C@H](CN(C)Cc2ccc(C(F)(F)F)cc2)O3)cc1	i	i	i	i
COc1ccccc1C1C(C(=O)c2sc(C)nc2C)C(=O)C(=O)N1CCCN1CCOCC1 (stereo not drawn)	i	i	i	i
COc1cccc(NC(=O)CSC2=C(C#N)C(c3cccc(Br)c3)CC(=O)N2)c1 (stereo not drawn)	i	i	i	i
COc1ccc(CN(C)C[C@@H]2Oc3ccc(NC(=O)C4CC4)cc3C(=O)N([C@@H](C)CO)C[C@H]2C)cc1	i	i	i	i
C[C@@H]1CN([C@H](C)CO)C(=O)c2cccc(NS(C)(=O)=O)c2O[C@H]1CN(C)Cc1ccc(Oc2ccccc2)cc1	i	i	i	i
Cc1noc(C)c1NC(=O)N(C)C[C@@H]1Oc2ncc(C#CC(C)(C)O)cc2C(=O)N([C@H](C)CO)C[C@@H]1C	i	i	i	i
C[C@H]1CCCCO[C@@H](CN(C)S(=O)(=O)c2cn(C)cn2)[C@@H](C)CN([C@@H](C)CO)C(=O)c2cc(NS(=O)(=O)c3ccccc3)ccc2O1	i	nt	i	i
COc1ccc(OC)c(NC(=O)CSc2nnc(C)s2)c1	i	i	i	i
C[C@@H]1CN([C@@H](C)CO)C(=O)c2cccc(NS(=O)(=O)c3cn(C)cn3)c2O[C@@H]1CN(C)C	i	i	i	i
CC(C)=CCC/C(C)=C/CC/C(C)=C/CSCC(=O)O	i	i	i	i
CCOC(=O)c1c(NC(=O)C(C)Oc2ccccc2C)sc2c1CCCC2 (stereo not drawn)	i	i	i	i
C[C@@H]1CN([C@@H](C)CO)C(=O)c2cccc(NC(=O)Nc3ccccc3)c2O[C@H]1CN(C)C(=O)NC1CCCCC1	i	i	i	i
CNC[C@@H]1Oc2ccc(NC(=O)Cc3ccccc3)cc2CC(=O)N([C@H](C)CO)C[C@@H]1C	i	i	i	i
CNC[C@H]1Oc2ccc(NS(=O)(=O)c3ccccc3)cc2C(=O)N([C@@H](C)CO)C[C@H]1C	i	i	i	i
COc1ccc(NC(=O)CC2SC3=NCCN3C2=O)cc1 (stereo not drawn)	i	i	i	i
Cc1ccc(SC(C)C(=O)NCc2cccnc2)cc1 (stereo not drawn)	i	i	i	i
Cc1ccc(S(=O)(=O)Nc2ccc3c(c2)CC(=O)N([C@H](C)CO)C[C@H](C)[C@H](CN(C)C(=O)Nc2c(C)noc2C)O3)cc1	i	i	i	i
C[C@@H]1CN([C@H](C)CO)C(=O)c2cccc(NC(=O)c3cnccn3)c2O[C@H]1CN(C)C(=O)NC1CCCCC1	i	i	i	i
CC(=O)OC/C(=C\COc1cc(=O)oc2cccc(C)c12)CCC=C(C)C	i	i	i	i
CC(C)CNC(=O)[C@@]1(C)c2ccccc2C(=O)N(Cc2cc(F)cc(C(F)(F)F)c2)[C@H]1c1ccc(CO)cc1	i	i	i	i
The list goes on:
SMILES	p53 mut binder	ID4 binder	STAT3 SMM	c-Myc SMM
CC(C)NC(=O)Nc1ccc2c(c1)CC(=O)N([C@H](C)CO)C[C@H](C)[C@H](CN(C)S(C)(=O)=O)O2	i	nt	i	i
C[C@@H]1CN([C@H](C)CO)C(=O)c2cc(NS(=O)(=O)c3ccccc3)ccc2O[C@@H](C)CCCCO[C@@H]1CN(C)Cc1ccncc1	i	i	i	i
COc1ccc(CN(C)C[C@@H]2OCCCC[C@@H](C)Oc3ccc(NC(=O)Nc4ccc(F)cc4)cc3C(=O)N([C@@H](C)CO)C[C@@H]2C)cc1	i	nt	i	i
CNC(=O)CN(c1cccc(Br)c1)S(C)(=O)=O	i	i	i	i
C[C@H]1CN([C@@H](C)CO)C(=O)c2cc(NC(=O)CCC(F)(F)F)ccc2O[C@@H]1CN(C)C(=O)Nc1ccc(F)cc1	i	nt	i	i
C[C@@H]1CN([C@H](C)CO)C(=O)c2cc(NC(=O)NC3CCCCC3)ccc2O[C@H]1CN(C)S(=O)(=O)c1ccccc1	i	i	i	i
Cc1noc(C)c1NC(=O)Nc1ccc2c(c1)C(=O)N([C@H](C)CO)C[C@H](C)[C@H](CN(C)C(=O)C1CCCCC1)OCCCC[C@@H](C)O2	i	i	i	i
C[C@H]1CN([C@@H](C)CO)C(=O)c2cc(NC(=O)C3CC3)ccc2O[C@@H]1CN(C)Cc1ccc(C(=O)O)cc1	i	i	i	i
CCC(=O)Nc1ccc2nc(SCc3ccccc3C#N)sc2c1	i	i	i	i
C[C@H](CO)N1C[C@H](C)[C@H](CN(C)C(=O)Nc2cccc3ccccc23)Oc2ccc(NC(=O)Cn3cnnn3)cc2CC1=O	i	i	i	i
Cc1ccc(-n2c(SCC(=O)Nc3ccc(F)c(F)c3)nnc2-c2ccccn2)cc1	i	i	i	i
COc1c(Cl)cc(Cl)cc1CNCCNCC(C)O (stereo not drawn)	+	i	+	i
C=CCSCC1Nc2cc(Cl)c(S(N)(=O)=O)cc2S(=O)(=O)N1 (stereo not drawn)	i	i	i	i
O=C(C1=C[C@H](c2ccc(Br)cc2)C[C@H](OCc2ccc(CO)cc2)O1)N1CCCC1	i	nt	i	i
C#CCNC(=O)C1=C[C@@H](c2ccc(C(F)(F)F)cc2)C[C@@H](OCc2ccc(CO)cc2)O1	i	i	i	i
C[C@@H]1CN([C@@H](C)CO)C(=O)Cc2cc(NS(=O)(=O)c3ccc(Cl)cc3)ccc2O[C@@H]1CN(C)Cc1ccccc1	i	nt	i	i
C[C@@H]1CN([C@@H](C)CO)C(=O)c2cc(NC(=O)Cn3cnnn3)ccc2O[C@H]1CN(C)C(=O)Nc1cccc2ccccc12	i	i	i	i

3 compounds out of the list, arranged by SMILES length, rising:
SMILES	p53 mut binder	ID4 binder	STAT3 SMM	c-Myc SMM
CCC(=O)Nc1ccc2nc(SCc3ccccc3C#N)sc2c1	i	i	i	i
C=CCSCC1Nc2cc(Cl)c(S(N)(=O)=O)cc2S(=O)(=O)N1 (stereo not drawn)	i	i	i	i
CC(C)NC(=O)Nc1ccc2c(c1)CC(=O)N([C@H](C)CO)C[C@H](C)[C@H](CN(C)S(C)(=O)=O)O2	i	nt	i	i

Some of the compounds tested; the hit share may differ from the screen's.
